GCN5L2 inh: inhibitors of human GCN5L2 histone acetyltransferase | GCN5L2 HAT assay, ThioGlo1 CoA-SH fluorescence | 0.21% of 390,000 active | Potency, µM (series often up to 58.9 µM), for inactives: at the highest dose activity change, negative = inhibition, most hits filed as inhibitors | Q92830
Target sequence (Q92830 whole entry, looked up): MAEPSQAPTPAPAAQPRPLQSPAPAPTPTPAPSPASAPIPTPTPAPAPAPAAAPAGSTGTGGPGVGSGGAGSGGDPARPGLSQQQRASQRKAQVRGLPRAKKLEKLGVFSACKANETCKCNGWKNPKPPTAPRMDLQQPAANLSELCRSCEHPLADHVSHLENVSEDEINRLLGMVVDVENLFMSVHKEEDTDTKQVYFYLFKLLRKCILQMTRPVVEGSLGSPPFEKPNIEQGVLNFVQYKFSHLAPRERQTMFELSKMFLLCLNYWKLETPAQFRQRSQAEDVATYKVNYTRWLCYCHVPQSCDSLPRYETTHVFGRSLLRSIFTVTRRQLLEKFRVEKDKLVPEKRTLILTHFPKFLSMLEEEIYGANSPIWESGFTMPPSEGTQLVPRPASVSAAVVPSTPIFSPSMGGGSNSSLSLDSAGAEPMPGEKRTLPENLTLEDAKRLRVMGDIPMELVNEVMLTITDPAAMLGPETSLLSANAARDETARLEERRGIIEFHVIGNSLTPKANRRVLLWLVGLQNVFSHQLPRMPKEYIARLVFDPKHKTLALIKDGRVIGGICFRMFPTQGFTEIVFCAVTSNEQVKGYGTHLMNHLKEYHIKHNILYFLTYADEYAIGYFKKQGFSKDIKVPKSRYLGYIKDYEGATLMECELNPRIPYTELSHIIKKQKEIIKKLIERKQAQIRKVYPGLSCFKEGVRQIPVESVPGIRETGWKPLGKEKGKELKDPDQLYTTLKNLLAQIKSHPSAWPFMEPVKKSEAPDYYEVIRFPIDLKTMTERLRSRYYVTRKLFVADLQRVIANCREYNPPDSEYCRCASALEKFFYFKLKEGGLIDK
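Titration-based screen in which CoA formation is detected via maleimide probe ThioGlo1 (50uM) turning fluorescent on thiol reaction; substrates H3(1-25) 75uM and acetyl-CoA 70uM, GCN5L2 20nM, 20 min incubation at room temperature.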
N370S GC: inhibitors or activators of N370S glucocerebrosidase for Gaucher disease. P04062. N370S GC spleen homogenate, 4MU-glucoside fluorescence. Potency, µM (highest dose often 59.4 µM), for inactives: at the highest dose activity change, negative = inhibition, hits mostly inhibitors. 0.092% of 330,000 active. AID 2101;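 note: 0% = full enzyme activity and -100% = no enzyme basal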
* = called active by the depositor; ? = inconclusive; nt = no result given; & = joins results of further samples. Calls come from the whole dose curve; as a rule, active = well fitted curve in the direction sought with a large enough effect; inconclusive = small, poorly fitted or top-dose-only effect, or another doubt; inactive = no such curve, though single readings can be large; an effect the other way counts as inactive or inconclusive. Unless noted, % is set by controls: 0 for no effect and ±100 for the full control effect; potency is the fitted concentration of half-maximal effect. Some of the compounds tested; most or all hits stand in other tables.

The opening four entries, to show the layout:
GCN5L2 inh	N370S GC	SMILES
-21.9%	-16.9%	C=CCc1ccccc1OCC(O)CN1C(=O)c2ccccc2C1=O (stereo not given)
-14.7%	2.5%	O=C(CN1CCN(c2ccccc2)CC1)Nc1nccs1
-3.6%	4.2%	COc1ccc(OCCCON2C(=O)c3ccccc3C2=O)cc1
-2.1%	3.5%	O=C(COC(=O)c1nc(Cl)ccc1Cl)Nc1ncc(Cl)cc1Cl

Results, from the start:
GCN5L2 inh	N370S GC	SMILES
-21.9%	-16.9%	C=CCc1ccccc1OCC(O)CN1C(=O)c2ccccc2C1=O (stereo not given)
-14.7%	2.5%	O=C(CN1CCN(c2ccccc2)CC1)Nc1nccs1
-3.6%	4.2%	COc1ccc(OCCCON2C(=O)c3ccccc3C2=O)cc1
-2.1%	3.5%	O=C(COC(=O)c1nc(Cl)ccc1Cl)Nc1ncc(Cl)cc1Cl
11.0%	-0.6%	COCCCNC(=S)NNC(=O)Cn1nc(C)c(Br)c1C
2.7%	10.8%	CSc1cccc(NC(=O)CCC(=O)O)c1
0.2%	4.7%	COCn1c(-c2ccc(OC)cc2)nc2ccccc21
-9.0%	?	O=C(Nc1nc2ccc(Cl)cc2s1)[C@@H]1CCCN1C(=O)c1cccs1
-12.3%	-5.7%	Cc1ccc(C(=O)Nc2ccnc(-c3cccnc3)n2)cc1
-6.1%	0.3%	COC(=O)[C@]1(C)N[C@H](c2ccc(-c3ccc(F)cc3)cc2)[C@@H]2C(=O)N(C)C(=O)[C@@H]21
-16.7%	1.2%	COc1ccc(C(=O)Nc2nnc(SCC(=O)Nc3ccc(NC(C)=O)cc3)s2)c(OC)c1
-6.4%	2.8%	COC(=O)c1c(NC(=O)c2ccco2)sc(C(=O)Nc2ccc(F)cc2)c1C
0.5%	2.0%	O=C1NC(c2ccccn2)Nc2sc3c(c21)CCC3 (stereo not given)
-6.7%	-1.1%	O=C(CSc1nnc2ccc(-c3ccc(F)cc3)nn12)N1CCCC1
-28.2%	-0.7%	CCCC(=O)Nc1ccc(-c2nc3cc(C)c(C)cc3o2)c(O)c1
0.2%	5.3%	S=C1Nc2ccccc2Sc2ccc(Cl)cc21
-3.2%	-2.7%	C/C(=N\NC(=O)Cn1nc(C)c([N+](=O)[O-])c1C)c1ccco1
-2.3%	-2.2%	CCOC(=O)c1csc(N)n1
-3.5%	-0.1%	Cc1ccc(C(=O)N2CCN(c3cccc(Cl)c3)CC2)cc1C
2.2%	-18.5%	COc1cc(C(=O)Nc2ccc3c(c2)CCCN3C(=O)c2ccco2)c([N+](=O)[O-])cc1OC

Rewritten with values under each structure: 7 of the compounds above
Value order: GCN5L2 inh	N370S GC
- O=C(Nc1nc2ccc(Cl)cc2s1)[C@@H]1CCCN1C(=O)c1cccs1
  -9.0%	?
- Cc1ccc(C(=O)Nc2ccnc(-c3cccnc3)n2)cc1
  -12.3%	-5.7%
- COC(=O)[C@]1(C)N[C@H](c2ccc(-c3ccc(F)cc3)cc2)[C@@H]2C(=O)N(C)C(=O)[C@@H]21
  -6.1%	0.3%
- COc1ccc(C(=O)Nc2nnc(SCC(=O)Nc3ccc(NC(C)=O)cc3)s2)c(OC)c1
  -16.7%	1.2%
- COC(=O)c1c(NC(=O)c2ccco2)sc(C(=O)Nc2ccc(F)cc2)c1C
  -6.4%	2.8%
- O=C1NC(c2ccccn2)Nc2sc3c(c21)CCC3 (stereo not given)
  0.5%	2.0%
- O=C(CSc1nnc2ccc(-c3ccc(F)cc3)nn12)N1CCCC1
  -6.7%	-1.1%

Other records.
GCN5L2 inh	N370S GC	SMILES
-2.6%	0.7%	O=c1cc(O)c2ccccc2n1Cc1ccccc1
-4.3%	3.7%	Cc1ccc(S(=O)(=O)/C(=C\N(C)C)c2cnc(Cl)s2)cc1
-2.5%	-10.8%	Cc1cc(-c2[nH]nc3c2C(c2ccc(Cl)cc2)C(C#N)=C(N)O3)c(C)s1 (stereo not given)
-5.4%	19.3%	O=C(Nc1cc2c(cc1Cl)OCCCO2)c1ccccc1
1.7%&-6.4%	?	COc1cc(Cl)c(NS(=O)(=O)c2cc3[nH]c(=O)c(=O)[nH]c3cc2C)c(OC)c1
-5.3%	-0.3%	CCOCCCNCc1c(Cl)cccc1Cl
0.2%	-7.0%	COC(CN(C)C(=O)C1CCCN(S(=O)(=O)c2ccc3c(c2)oc(=O)n3C)C1)OC (stereo not given)
4.0%	-6.7%	Cc1ccccc1C(=O)NC1CCS(=O)(=O)C1 (stereo not given)
3.6%	1.9%	Cc1ccc(S(=O)(=O)Nc2ccc3ncccc3c2)cc1
2.3%	-3.9%	CC(c1ccc(C(C)(C)C)cc1)S(=O)CC(O)CO (stereo not given)
5.9%	2.1%	C=CCn1c(N(C)C)nc2c1c(=O)[nH]c(=O)n2C
2.5%	7.0%	COc1ccccc1-n1c(COc2ccccc2-c2ccccc2)nnc1SCC(=O)c1c(N)n(C)c(=O)n(C)c1=O
-0.3%	1.4%	CCc1[nH]nc2c1C(C(C)C)C(C#N)=C(N)O2 (stereo not given)
-1.0%	-8.4%	Cc1ccc(-c2nn(-c3ccc(F)cc3)cc2C(=O)NCCCN2CCCC2=O)cc1
-6.6%	0.4%	Cc1ccc(NC(=O)Cn2nc(C)c3ccccc3c2=O)c(C)c1
5.4%	-19.1%	COc1ccc(/C=C/C(=O)Nc2cc(F)ccc2C)cc1S(=O)(=O)N1CCOCC1
10.2%	2.6%	O=C(Nc1ccccc1Br)C1CCC(=O)N1Cc1ccccc1Cl (stereo not given)
-2.2%	7.7%	Cc1cc(N2CCOCC2)nc(SCC(=O)c2ccc(Cl)cc2)n1
-1.7%	nt	CN(NS(=O)(=O)c1ccccc1)c1nc2ccccc2nc1C(F)(F)F
9.5%	-1.0%	CCOC(=O)C1CCN(C(=O)C(=O)N2CCC(C(=O)OCC)CC2)CC1
-9.4%	3.0%	COc1ccc(C(=O)NCC(=O)OCC(=O)Nc2c(C)n(C)n(-c3ccccc3)c2=O)cc1

Compounds above with an NH in an aromatic ring, in the order listed:
GCN5L2 inh	N370S GC	SMILES
-2.5%	-10.8%	Cc1cc(-c2[nH]nc3c2C(c2ccc(Cl)cc2)C(C#N)=C(N)O3)c(C)s1 (stereo not given)
1.7%&-6.4%	?	COc1cc(Cl)c(NS(=O)(=O)c2cc3[nH]c(=O)c(=O)[nH]c3cc2C)c(OC)c1
5.9%	2.1%	C=CCn1c(N(C)C)nc2c1c(=O)[nH]c(=O)n2C
-0.3%	1.4%	CCc1[nH]nc2c1C(C(C)C)C(C#N)=C(N)O2 (stereo not given)

3 of the compounds above, comma-delimited.
SMILES,GCN5L2 inh,N370S GC
COc1ccc(/C=C/C(=O)Nc2cc(F)ccc2C)cc1S(=O)(=O)N1CCOCC1,5.4%,-19.1%
O=C(Nc1ccccc1Br)C1CCC(=O)N1Cc1ccccc1Cl (stereo not given),10.2%,2.6%
Cc1cc(N2CCOCC2)nc(SCC(=O)c2ccc(Cl)cc2)n1,-2.2%,7.7%

Compound activity as filed in PubChem.
